Screening results deposited in PubChem by several laboratories.
Mtb hypoxia rep – PubChem AID 1159583; M. tuberculosis hypoxia-regulated fluorescent reporter, fluorescence; 300,000 tested, 0.1% active; fluorescence inhibition, % (concentration not given with the values);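 active means 35 to 45% if threefold the growth effect, above 45% if 1.5-fold the growth effect; inactive means the rest, general growth blockers included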;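 further: wells of about 50 µL received 100 nL stock; 0% = vehicle wells and 100% = reference inhibitor wells; whole bacteria with a GFP reporter of the hypoxia response; strong numbers were not always called active; many hits fall short of the cut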
Autofluor counter – compound fluorescence in toxin protease inhibitor counterscreen; compound autofluorescence counterscreen, microsphere flow cytometry; stronger effect = higher value; fluorescence intensity (concentration not given with the values); 360,000 tested, 3.1% active;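 active means at least 3 SD above the mean of all compounds, about 16000 in these data; inconclusive means too few beads counted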;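 further: 100 nL of 1 mM stock went into each well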
BJeLR lethal – MLPCN primary cell-based screen for lethality selective to Ras in HRASV12 cells; BJeLR (HRASV12) viability, CellTiter-Glo ATP luminescence, 48 h; reference of the scale not given here; inhibition, % (concentration not given with the values); 300,000 tested, 0.17% active;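 active means replicate mean above 50%; inconclusive means above 50% but judged a plate artefact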;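 further: 50 nL library stock added to about 25 µL; numbers are from one replicate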
PrP UTR inh – inhibition of PrP 5' UTR reporter expression; cell-based PrP 5' UTR mRNA reporter, plate reader; inhibition, % (test concentration not listed); 340,000 tested, 0.35% active; AID 488862, 2010;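 active means every replicate at 50% or more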;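 further: 0 = median of the neutral control wells; tested in H4 reporter cells; numbers are from one replicate; inactives centre near -14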
Sa ugtP lethal – growth inhibition of ugtP-null S. aureus, primary screen, RN4220 ugtP deletion, OD600; growth inhibition, % (no concentration beside the values); 330,000 tested, 0.54% active; 16 h; some inactives read as strong as hits; AID 1259309, 2017;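 active means z-score under -3 and OD600 up to 0.15 on both plates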;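 further: plate controls were untreated wells for no effect and antibiotic for full effect; wells of about 80 µL received 100 nL stock; the first replicate is given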
RN4220 kill – growth inhibition of S. aureus RN4220, primary screen, OD600; 16 h; inhibition, % (test concentration not listed); 330,000 tested, 0.33% active; AID 1259311, 2017;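 active means z-score of -3 or lower and OD600 up to 0.18 on both plates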;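 further: plate controls were untreated cells for no effect and reference antibiotic for full effect; stock transfer was 100 nL into about 80 µL; one replicate is shown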
Mtb hypoxia rep growth – recorded beside Mtb hypoxia rep, whose call it bears; growth inhibition, %; measured here: M. tuberculosis growth (absorbance);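 0% = vehicle and 100% = reference antibiotic; read after six days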
Active calls of the source: *; ? = inconclusive; . = not tested or not shown.

1	CCOc1cc(C(=O)N(CC)CC(=O)Nc2c(F)cccc2F)ccc1OCC(=O)N1CCCCC1
2	COC(=O)c1ccc(Oc2ccc(C(F)(F)F)cn2)cc1
3	c1ccc(-c2cc3c(nn2)CCc2nonc2-3)cc1
4	O/N=C1\CC/C(=N\O)c2nn(-c3ccccc3Cl)nc21
5	C#CCNC(=O)C1CCN(c2cc(C)nc(-c3ccccc3)n2)CC1
6	CNS(=O)(=O)c1cc(Br)ccc1S(=O)c1ccccc1C(=O)O (stereo not given)
7	O=[N+]([O-])c1ccc(Cc2cncc(O)c2)cc1
8	O=C(CN1C(=O)CSc2ccccc21)NCCC1=CCCCC1

Screen / compound no.	1	2	3	4	5	6	7	8
Mtb hypoxia rep	15	-4	.	.	4	3	16	11
Mtb hypoxia rep growth	9	-2	.	.	11	3	-2	14
Autofluor counter	?	2075	4586	12471	2587	4741	2996	7811
BJeLR lethal	-9	0	-8	-4	1	-5	-3	1
PrP UTR inh	-5	-37	1	-11	-16	-21	-15	-26
Sa ugtP lethal	0	17	-7	.	1	4	5	-2
RN4220 kill	-1.3	1.9	3.9	.	1.0	-0.5	4.3	3.5

Single records, as listed above. Order of screens: Mtb hypoxia rep	Mtb hypoxia rep growth	Autofluor counter	BJeLR lethal	PrP UTR inh	Sa ugtP lethal	RN4220 kill
O=C(CN1C(=O)CSc2ccccc21)NCCC1=CCCCC1 in the list: 11	14	7811	1	-26	-2	3.5
O=[N+]([O-])c1ccc(Cc2cncc(O)c2)cc1 in the list: 16	-2	2996	-3	-15	5	4.3
COC(=O)c1ccc(Oc2ccc(C(F)(F)F)cn2)cc1 in the list: -4	-2	2075	0	-37	17	1.9
O/N=C1\CC/C(=N\O)c2nn(-c3ccccc3Cl)nc21 in the list: .	.	12471	-4	-11	.	.
CCOc1cc(C(=O)N(CC)CC(=O)Nc2c(F)cccc2F)ccc1OCC(=O)N1CCCCC1 in the list: 15	9	?	-9	-5	0	-1.3

Later entries:
9	CCOc1ccc(S(=O)(=O)N2CCCC(C(=O)N3CCN(c4ccccc4)CC3)C2)cc1 (stereo not given)
10	O=C1N=C2SCCN2/C1=C\c1ccccc1Cl
11	CC(=NNc1c(Cl)c(Cl)nc(C(=O)O)c1Cl)c1ccc(O)cc1
12	COc1cc(/C=C/C(=O)OCC(=O)Nc2ccccc2Sc2ccc(Cl)cc2)ccc1O
13	O=C(NCCNC(=O)Nc1ccc(Cl)cc1)Nc1ccc(Cl)cc1
14	Cc1ccc(C2CCN(C(=O)Nc3ccccc3)C2)cc1 (stereo not given)
15	O=C(CN1CCN(C(=O)CN2C(=O)NC3(CCCC3)C2=O)CC1)Nc1cccc(F)c1
16	NC(=O)CC(NC(=O)c1ccccc1)c1ccc(NC2CCCC2)c([N+](=O)[O-])c1 (stereo not given)

Screen / compound no.	9	10	11	12	13	14	15	16
Mtb hypoxia rep	3	.	1	-1	14	.	20	-11
Mtb hypoxia rep growth	3	.	0	6	8	.	9	-29
Autofluor counter	5389	3581	.	2246	3854	3344	3878	3778
BJeLR lethal	-5	0	.	-1	.	-1	.	7
PrP UTR inh	-22	-14	.	-1	-12	-56	-21	-6
Sa ugtP lethal	3	.	0	19	4	3	1	-3
RN4220 kill	3.0	.	1.4	26	4.1	7.5	-0.1	-1.6

Part of the list above, bar-delimited:
entry | Compound | Mtb hypoxia rep | Mtb hypoxia rep growth | Autofluor counter | BJeLR lethal | PrP UTR inh | Sa ugtP lethal | RN4220 kill
6 | CNS(=O)(=O)c1cc(Br)ccc1S(=O)c1ccccc1C(=O)O (stereo not given) | 3 | 3 | 4741 | -5 | -21 | 4 | -0.5
7 | O=[N+]([O-])c1ccc(Cc2cncc(O)c2)cc1 | 16 | -2 | 2996 | -3 | -15 | 5 | 4.3

Next section
17	CON=Cc1cc([N+](=O)[O-])ccc1Sc1ccc(C)cc1
18	N#CCCn1cc(C=N/N=C2\NC(=O)C(CC(=O)O)S2)c(-c2ccc(F)cc2)n1 (stereo not given)
19	NNc1nnc2c3cc(F)ccc3n(CCc3ccccc3)c2n1
20	Cc1ccc2[nH]c(=O)c(CC=C(Cl)Cl)c(C)c2c1
21	COc1ccc(C)cc1NC(=O)C(NCC(O)c1ccccc1)c1ccccc1 (stereo not given)
22	Cc1cc(NC(=O)c2ccccc2)cc(NC(=O)c2ccccc2)c1C
23	CC1CCSP(=O)(Oc2ccccc2)O1 (stereo not given)
24	O=C(Nc1nccs1)c1ccc(COc2ccc(Cl)cc2)o1

Screen / compound no.	17	18	19	20	21	22	23	24
Mtb hypoxia rep	-3	-5	9	1	12	6	-5	5
Mtb hypoxia rep growth	3	3	-5	3	3	-2	0	5
Autofluor counter	.	.	3246	2637	3199	3844	.	16047
BJeLR lethal	.	.	3	3	9	-7	14	5
PrP UTR inh	.	.	0	-16	-8	-29	-22	-15
Sa ugtP lethal	22	6	-7	10	5	3	-5	-22
RN4220 kill	-1.9	0.8	3.6	2.8	4.1	0.6	-1.7	8.3

25	COCCNC(=O)c1cccc(OC2CCN(Cc3ccc(F)c(OC)c3)CC2)c1
26	COc1ccc(OC)c(C=NN(C)c2ccccc2)c1
27	CCC(C)(C)NC(=O)Cc1ccc(OC)c(OC)c1
28	NC(=O)C1CCN(C(=O)CSc2ncccn2)CC1
29	C#CCOCCOCCOCCNc1nc(N2CCN(C(=O)[C@H]([C@@H](C)CC)n3cc([C@@H](N)CO)nn3)CC2)nc(N2CCN(C(=O)[C@H]([C@@H](C)CC)n3cc([C@@H](N)CC(C)C)nn3)CC2)n1
30	CC(C)c1ccc(Nc2nnns2)cc1
31	Cc1ccsc1S(=O)(=O)N1CCCC(CCC(=O)NCc2ccccc2F)C1 (stereo not given)
32	O=C1CCc2cc(NS(=O)(=O)c3ccc(Cl)cc3)cc3c2N1CC3

Screen / compound no.	25	26	27	28	29	30	31	32
Mtb hypoxia rep	8	6	14	1	.	0	5	-4
Mtb hypoxia rep growth	-1	6	0	4	.	5	8	-2
Autofluor counter	.	.	9721	4256	5121	6508	3231	4489
BJeLR lethal	3	.	-4	8	-5	2	14	-1
PrP UTR inh	-14	.	-20	-20	1	-10	-35	-15
Sa ugtP lethal	1	8	5	9	.	-2	3	0
RN4220 kill	0.8	12	2.1	4.4	.	4.5	1.6	12

33	Cc1ccccc1Cn1ccc(-c2ccc3c(c2)OCO3)n1
34	Cc1ccc(Nc2ccncc2S(N)(=O)=O)cc1
35	Cc1ccccc1N(CC(=O)N/N=C/c1cc(Br)c(C)o1)S(C)(=O)=O
36	O=C(Nc1ccc2c(c1)OCO2)c1n[nH]c(=O)c2ccccc12
37	CC1CCCC(NC(=O)COC(=O)[C@@H](NC(=O)c2ccccc2Cl)C(C)C)C1C (stereo not given in full)
38	O=C(c1ccco1)N1CCN(S(=O)(=O)c2c(Cl)cccc2Cl)CC1

Screen / compound no.	33	34	35	36	37	38
Mtb hypoxia rep	9	-6	.	1	6	3
Mtb hypoxia rep growth	10	1	.	4	7	-5
Autofluor counter	20609*	5411	2578	3568	6280	3780
BJeLR lethal	-15	-4	4	2	.	0
PrP UTR inh	-40	.	-6	-49	-6	0
Sa ugtP lethal	6	-2	.	-7	7	0
RN4220 kill	4.4	-1.1	.	-11	3.3	5.5
